NPYLR7 agonist: mosquito NPYLR7 agonism; HEK293T NPYLR7/Galpha15, GCaMP6s calcium fluorescence; activation, % at 10 µM; 0.15% of 270,000 active; AID 1259423; in the data active = activation above about 40%;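 also: 0% = vehicle and 100% = reference agonist at the receptor; some compounds past the cut are filed as inactive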
NPYLR7 agonist max-min: recorded beside NPYLR7 agonist, whose call it bears; activation, %; measured here: Max-Min RFU normalised activation; some inactives read as strong as hits;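 span of the calcium signal over five minutes; 0% = vehicle and 100% = native peptide agonist; compound fluorescence can raise it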
* = called active by the depositor; & = joins results of further samples.

Screening O=C(c1ccccc1Cl)N(Cc1cc(Cl)ccc1OS(=O)(=O)c1ccc(F)cc1)C1CC1 returned NPYLR7 agonist -1 and NPYLR7 agonist max-min -1.
Screening O=C(O)CC1CNCCN(C(=O)CCc2ccc3c(c2)OCO3)C1 (stereo unspecified) returned NPYLR7 agonist -1 and NPYLR7 agonist max-min -1.
`Cc1[nH]c(=O)[nH]c(=O)c1CC(=O)Nc1cccc(NS(C)(=O)=O)c1` gave NPYLR7 agonist 1 and NPYLR7 agonist max-min -1.
`CCOC(=O)C1(C)CCCN1C(=O)c1ccc(Cl)cc1Cl` (stereo unspecified) gave NPYLR7 agonist -1 and NPYLR7 agonist max-min -3.
For CC1(C)NC(=O)N(CCCN2CCCC2c2cccc(Br)c2)C1=O (stereo unspecified) the results were NPYLR7 agonist -3 and NPYLR7 agonist max-min -8.
`C=CCN=c1scc(-c2ccc(C)c(C)c2)n1N=Cc1cccnc1` gave NPYLR7 agonist -6 and NPYLR7 agonist max-min -9.
`O=S1(=O)N=C(c2ccccc2)c2ccccc2N1` gave NPYLR7 agonist 3 and NPYLR7 agonist max-min 7.
For Cc1ccc(F)c(NC(=O)C2CCCN(CC(C)C)C2)c1 (stereo unspecified) the results were NPYLR7 agonist 2 and NPYLR7 agonist max-min 1.
COCCN(Cc1cccc(OS(=O)(=O)c2ccc(F)cc2)c1)S(=O)(=O)c1cccc2ccccc12 was read as NPYLR7 agonist -4 and NPYLR7 agonist max-min 1.
`COc1ccc(-n2[nH]c(C)c(C3=C(N(C)Cc4ccccc4)C(=O)N(Cc4ccco4)C3=O)c2=O)cc1` gave NPYLR7 agonist 0 and NPYLR7 agonist max-min 4.
`CC(C)COC(=O)N1CCN(CCN2CCOCC2)CC1` gave NPYLR7 agonist 8 and NPYLR7 agonist max-min 8.
CCOc1cc(S(=O)(=O)NCc2ccco2)ccc1Cl was read as NPYLR7 agonist 8 and NPYLR7 agonist max-min 8.
`COc1ccc(Cl)cc1N1CC(c2nc3ccccc3n2C)CC1=O` (stereo unspecified) gave NPYLR7 agonist -1 and NPYLR7 agonist max-min 5.
COc1cccc([C@@H](C)NC(=O)c2ccc(-c3cc(-c4cccc(C(F)(F)F)c4)n[nH]3)cc2)c1 was read as NPYLR7 agonist 2 and NPYLR7 agonist max-min 10.
CCc1ccc(C(NCC(=O)NC2(C#N)CCCC2)c2cccs2)cc1 (stereo unspecified) was read as NPYLR7 agonist 2 and NPYLR7 agonist max-min 0.
`OC(COc1ccc(Br)cc1)C[N+]1(Cc2ccccc2)CCCCC1` (stereo unspecified) gave NPYLR7 agonist -5 and NPYLR7 agonist max-min -6.
For CCOC(=O)C1=C(C)N=c2sc(=Cc3sccc3C)c(=O)n2C1c1ccccc1OC (stereo unspecified) the results were NPYLR7 agonist -5 and NPYLR7 agonist max-min -13.
Screening Cc1ccc(C2=NN(C(=O)CN3CCOCC3)C(c3cccc(F)c3)C2)cc1 (stereo unspecified) returned NPYLR7 agonist -2 and NPYLR7 agonist max-min -1.
Screening CCCCCCNC(=O)c1cc(-c2ccc(F)cc2)n(-c2cccc(C)c2)c1C returned NPYLR7 agonist 16 and NPYLR7 agonist max-min 23.
`Cc1cc(C)c(-n2cnnn2)c(C)c1` gave NPYLR7 agonist -3 and NPYLR7 agonist max-min -7.
Fc1ccccc1N1CCN(Cn2[nH]c(-c3ccccc3)nc2=S)CC1 was read as NPYLR7 agonist 7 and NPYLR7 agonist max-min 3.
`O=C(NCC1CCCN(Cc2cccc(F)c2F)C1)c1cccs1` (stereo unspecified) gave NPYLR7 agonist 12 and NPYLR7 agonist max-min 4.
Screening COc1cc2ncc(-c3ccccc3)nc2cc1OC returned NPYLR7 agonist 0 and NPYLR7 agonist max-min -28.
`O=C(C1CCOCC1)N1CCC2(CCCN(Cc3ccccc3F)C2=O)C1` (stereo unspecified) gave NPYLR7 agonist 3 and NPYLR7 agonist max-min 2.
Screening Cc1cnc(=O)[nH]c1SCC(=O)NCc1ccco1 returned NPYLR7 agonist 5 and NPYLR7 agonist max-min 3.
`CCNC(=O)N1CCN([C@@H]2C[C@@H]3CO[C@H](c4ccccc4)C[C@@H]3C2)CC1` gave NPYLR7 agonist 23 and NPYLR7 agonist max-min 30.
CCOC(=O)C1(C)CCCN1C(=O)c1cc(C)on1 (stereo unspecified) was read as NPYLR7 agonist -1 and NPYLR7 agonist max-min -6.
Screening CCOC(=O)c1coc(N2CCC3(CC2)C(=O)Nc2ccccc23)n1 returned NPYLR7 agonist 8 and NPYLR7 agonist max-min 4.
Screening CCc1cnc(C)nc1N1CCN(c2ncccn2)CC1 returned NPYLR7 agonist 2 and NPYLR7 agonist max-min -6.
Screening COc1ccc(C2Nc3ccccc3C(=O)N2c2ccc(C)cc2)cc1Cn1cc([N+](=O)[O-])cn1 (stereo unspecified) returned NPYLR7 agonist -10 and NPYLR7 agonist max-min -17.
`Cn1c(N)c(C(=O)COC(=O)C2CCN(C=CC(=O)C(F)(F)F)CC2)c(=O)n(C)c1=O` gave NPYLR7 agonist 11 and NPYLR7 agonist max-min 11.
For CCCCCCNC(=O)CC(c1ccc(C(C)(C)C)cc1)c1c[nH]c2ccccc12 (stereo unspecified) the results were NPYLR7 agonist 30 and NPYLR7 agonist max-min 37.
`O=c1c2ccccc2nnn1CSc1ccc(F)cc1` gave NPYLR7 agonist -2 and NPYLR7 agonist max-min -3.
`CN(Cc1ccccc1)C(=O)CN1C(=O)NC(C)(c2ccc(C(C)(C)C)cc2)C1=O` (stereo unspecified) gave NPYLR7 agonist -6 and NPYLR7 agonist max-min -5.
`COCCN(Cc1cccc(OS(=O)(=O)c2ccc(F)cc2)c1)C(=O)c1cccc(F)c1` gave NPYLR7 agonist -6 and NPYLR7 agonist max-min 1.
For CNc1cncc(-c2cccc(COC)c2)n1 the results were NPYLR7 agonist 4 and NPYLR7 agonist max-min 3.
`CC(Cc1ccsc1)n1ccnc1-c1nccn1C` (stereo unspecified) gave NPYLR7 agonist 4 and NPYLR7 agonist max-min -1.
COC(=O)c1sccc1NS(=O)(=O)c1ccc(F)c(F)c1 was read as NPYLR7 agonist 3 and NPYLR7 agonist max-min -1.
`c1ccc(Cc2nc(CNC3CCC4(CCNCC4)CC3)no2)cc1` gave NPYLR7 agonist 3 and NPYLR7 agonist max-min 3.
Cc1ccc2cc(CCNC(=O)C3CCCCC3)c(=O)[nH]c2c1 was read as NPYLR7 agonist 2 and NPYLR7 agonist max-min 17.

Overlap with the part before: four entries, then new ones.
`CC(Cc1ccsc1)n1ccnc1-c1nccn1C` (stereo unspecified) gave NPYLR7 agonist 4 and NPYLR7 agonist max-min -1.
COC(=O)c1sccc1NS(=O)(=O)c1ccc(F)c(F)c1 was read as NPYLR7 agonist 3 and NPYLR7 agonist max-min -1.
`c1ccc(Cc2nc(CNC3CCC4(CCNCC4)CC3)no2)cc1` gave NPYLR7 agonist 3 and NPYLR7 agonist max-min 3.
Cc1ccc2cc(CCNC(=O)C3CCCCC3)c(=O)[nH]c2c1 was read as NPYLR7 agonist 2 and NPYLR7 agonist max-min 17.
Screening CCOC(=O)c1cc(C#N)c(SCC(=O)N2CC(C)CC(C)C2)nc1C (stereo unspecified) returned NPYLR7 agonist 4 and NPYLR7 agonist max-min -1.
CCCc1nc(N2CCN(C(=O)c3ccc(F)cc3)CC2)c2c(-c3cccc(C(F)(F)F)c3)noc2n1 was read as NPYLR7 agonist 19 and NPYLR7 agonist max-min 4.
For COc1cc(C=C(C#N)S(=O)(=O)c2cc(Br)ccc2Br)cc(OC)c1 the results were NPYLR7 agonist 10 and NPYLR7 agonist max-min 14.
For CN(C)CCN(CCN(C)C)C(=O)NC1CCC(O)CC1 (stereo unspecified) the results were NPYLR7 agonist -1 and NPYLR7 agonist max-min -2.
Screening COCC(=O)N1CCCN(Cc2c(C)nc3ccc(Cl)cn23)CC1 returned NPYLR7 agonist 4 and NPYLR7 agonist max-min 2.
CCC(C)N(Cc1ccsc1)Cc1nc[nH]c1C (stereo unspecified) was read as NPYLR7 agonist 3 and NPYLR7 agonist max-min 0.
`CC(=O)N1CCN(c2ncccc2CNC(=O)C2CC23CCCCC3)CC1` (stereo unspecified) gave NPYLR7 agonist 7 and NPYLR7 agonist max-min 6.
Screening Cc1nc2c(c(N(C)CC3COc4ccccc4O3)n1)CNC2 (stereo unspecified) returned NPYLR7 agonist -4 and NPYLR7 agonist max-min -5.
`CNc1nc(-c2cc(NCc3ccccn3)nc3[nH]ccc23)nc2c1CCC2` gave NPYLR7 agonist 4 and NPYLR7 agonist max-min 2.
`COc1ccc(/C=C/CN2CCN(CC3CCCCC3)C(CCO)C2)cc1` (stereo unspecified) gave NPYLR7 agonist 19 and NPYLR7 agonist max-min 8.
For O=C(C1=CCCC1)N1CCCC(c2nc(-c3ccncc3)ncc2-c2ccccc2)C1 (stereo unspecified) the results were NPYLR7 agonist 31 and NPYLR7 agonist max-min 19.
CCCCNc1cc(C)nc2c(C)c(-c3ccc(OC)c(OC)c3)nn12 was read as NPYLR7 agonist 16 and NPYLR7 agonist max-min 19.
Cc1ccccc1CCC1CCCN(S(C)(=O)=O)C1 (stereo unspecified) was read as NPYLR7 agonist 6 and NPYLR7 agonist max-min 4.
For COc1ccc(-n2nnnc2SCc2csc(-c3cccc(OC)c3OC)n2)cc1 the results were NPYLR7 agonist -7 and NPYLR7 agonist max-min 13.
`Cc1ccc(-c2cc(O)c3c(c2)CN(C(=O)C2CCN(C)C2)CCO3)s1` (stereo unspecified) gave NPYLR7 agonist 6 and NPYLR7 agonist max-min 2.
Screening COc1cccc(N=C2SC(C(=O)Nc3ccccc3F)CC(=O)N2C)c1 (stereo unspecified) returned NPYLR7 agonist 5 and NPYLR7 agonist max-min 2.
Screening CCCCNC(=O)c1c(NC(C)=O)sc2c1CCCC2 returned NPYLR7 agonist -4 and NPYLR7 agonist max-min -9.
Screening CCC(C)NCc1c(-c2ccccc2)noc1N1CCSCC1 (stereo unspecified) returned NPYLR7 agonist 9 and NPYLR7 agonist max-min 9.
`COc1ccc(Cl)cc1C(=O)Nc1cc(-c2nc3ccccc3o2)ccc1Cl` gave NPYLR7 agonist 9 and NPYLR7 agonist max-min 7.
For Cn1cnc2cnc(Nc3ccc(F)c(Cl)c3)cc21 the results were NPYLR7 agonist -5 and NPYLR7 agonist max-min 1.
For O=S(=O)(NCC1(N2CCSCC2)CCCC1)c1c(F)cccc1F the results were NPYLR7 agonist -2 and NPYLR7 agonist max-min -4.
Cc1nc(SC(F)F)[nH]c(=O)c1CCC(=O)NCc1ccccn1 was read as NPYLR7 agonist -6 and NPYLR7 agonist max-min -6.
Screening COc1cc(-c2nc(CN(C)Cc3cccc(-n4cccn4)c3)c(C)o2)ccc1F returned NPYLR7 agonist 10 and NPYLR7 agonist max-min -5.
CC(C)NC(=O)N(CCN(C)C)Cc1ccc(OS(=O)(=O)C(C)C)cc1 was read as NPYLR7 agonist 24 and NPYLR7 agonist max-min 35.
`Cc1oc(-c2ccccc2Cl)cc1C(=O)NCCN1CCNC1=O` gave NPYLR7 agonist 2 and NPYLR7 agonist max-min -6.
For N[C@@H]1CC[C@@H](NC(=O)c2ccccc2-n2cncn2)C1 the results were NPYLR7 agonist -2 and NPYLR7 agonist max-min -8.
For COc1ccc(-n2cccn2)c(CN2CCN(c3cc(C)nc(N)n3)CC2)c1 the results were NPYLR7 agonist 15 and NPYLR7 agonist max-min 5.
CCOC(=O)c1c(NC(=O)C2CC2)sc(C(=O)Nc2ccccc2F)c1C was read as NPYLR7 agonist -6 and NPYLR7 agonist max-min -9.
Cc1cccc(-n2c(=O)n(CCC(C)C)c(=O)c3[nH]cnc32)c1 was read as NPYLR7 agonist 10 and NPYLR7 agonist max-min 1.
`CCC(c1nc2ccccc2c(=O)n1-c1ccc(Br)cc1)N(CCC(C)C)C(=O)Nc1ccccc1F` (stereo unspecified) gave NPYLR7 agonist -12 and NPYLR7 agonist max-min -3.

Among those listed so far, three contain a CF3 group:
COc1cccc([C@@H](C)NC(=O)c2ccc(-c3cc(-c4cccc(C(F)(F)F)c4)n[nH]3)cc2)c1 was read as NPYLR7 agonist 2 and NPYLR7 agonist max-min 10.
`Cn1c(N)c(C(=O)COC(=O)C2CCN(C=CC(=O)C(F)(F)F)CC2)c(=O)n(C)c1=O` gave NPYLR7 agonist 11 and NPYLR7 agonist max-min 11.
CCCc1nc(N2CCN(C(=O)c3ccc(F)cc3)CC2)c2c(-c3cccc(C(F)(F)F)c3)noc2n1 was read as NPYLR7 agonist 19 and NPYLR7 agonist max-min 4.

Remaining list, next part
Screening Cc1cccc(-n2c(SCC(=O)c3ccc(Cl)cc3)nnc2-c2cccs2)c1 returned NPYLR7 agonist 14 and NPYLR7 agonist max-min 21.
For COCCCN(Cc1c(C)nn(-c2cccc(F)c2)c1N1CCN(C)CC1)C(=O)c1cccc(Br)c1 the results were NPYLR7 agonist 2 and NPYLR7 agonist max-min 14.
`O=C(Nc1cccc(C(F)(F)F)c1)N(Cc1cccn1Cc1cccc(Cl)c1)C1CCCCC1` gave NPYLR7 agonist 13 and NPYLR7 agonist max-min 20.
Screening CN1CCC2(CCN3CCc4c(oc5ccccc45)C3C2)N(C)C1=O (stereo unspecified) returned NPYLR7 agonist 2 and NPYLR7 agonist max-min -14.
For Cc1cc(C(=O)Nc2c(C)n[nH]c2C)cc(C)c1OC(F)F the results were NPYLR7 agonist -4 and NPYLR7 agonist max-min -5.
`Cc1nc(-c2ccc(C(F)(F)F)cc2)nc(N2CCN(C(=O)COc3ccc(Cl)cc3)CC2)c1C(C)C` gave NPYLR7 agonist -1 and NPYLR7 agonist max-min 4.
Screening CN(C)CCN(C(=O)CS(=O)(=O)c1ccc(Cl)cc1)c1nc2c(F)cc(F)cc2s1 returned NPYLR7 agonist -1 and NPYLR7 agonist max-min -5.
Screening COc1ccc2c(c1)C1CC(C)(O2)N(C)C(=O)C1S(=O)(=O)c1ccc(C)cc1 (stereo unspecified) returned NPYLR7 agonist 0 and NPYLR7 agonist max-min 4.
`CCS(=O)(=O)Oc1cc(CN(Cc2ccc(F)cc2)C(=O)COC)ccc1OC` gave NPYLR7 agonist 4 and NPYLR7 agonist max-min 10.
For O=C(Nc1ccc2c(c1)CN(C(=O)Cn1cncn1)CC2)C1CCCO1 (stereo unspecified) the results were NPYLR7 agonist -9&5 and NPYLR7 agonist max-min -11&3.

High-throughput results deposited in PubChem BioAssay by Fisher Drug Discovery Resource Center.

Some of the compounds tested; count on the stated rates, not on these rows.
